PMP22 txn prim: modulates PMP22 transcription in S16 Schwann cells | S16 Pmp22-F2sN Schwann cells (luciferase reporters placed in the Pmp22 gene), FLuc/NLuc coincidence luminescence, 24 h | 43,000 compounds, 2% hits | Potency, µM (top dose mostly 57.5 µM), for the others: at the highest dose activity change, negative = inhibition, usual class: inhibitors | AID 1508649; active = clear falling dose curves in both reporters; inconclusive = both reporters move, but less clearly or upward; inactive = either reporter flat; the % is the NLuc reporter signal; also: % is scaled to controls: 0 for no effect and ±100 for the full control effect; some results filed as inactive show a strong effect at the top dose
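Transcriptional readout in edited S16(c9) cells: two luciferases reported from the Pmp22 locus, measured in turn after 24 h compound incubation.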
HTT promoter inh: inhibits huntingtin promoter activity; Potency, µM (titrated, usually from 57.5 µM), without a hit: at the highest dose activity change, negative = inhibition, usual class: inhibitors; AID 1508623; HEK293 HTT promoter firefly luciferase reporter (activity 0% = vehicle and -100% = no light), 24 h; 48,000 compounds, 0.93% hits; active = well fitted inhibition curve with a large enough effect; inconclusive = small, poorly fitted or top-dose-only effect; inactive = no such curve, though single readings can be large or run the other way; also: nearly all actives have a fitted effect of over 50% in size
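Firefly luciferase readout (Dual-Glo, 10 min RT) after 24 h, 37 °C compound exposure (final up to 57.5 uM) of HEK293 reporter cells cultured 24 h beforehand; PTC124 at 50 uM final as control inhibitor; activity scaled vehicle 0%, zero RLU -100%.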
Starred values were filed as active, the others as inactive; u = inconclusive; x = no result given; & = joins results of further samples; ! = not confirmed by another sample; [ ] = dose if it differs, or a comment. Potency is read from the fitted curve at half-maximal effect.

SMILES	PMP22 txn prim	HTT promoter inh
CCCCn1cc(S(=O)(=O)c2ccccc2)c(=O)c2cc(F)c(N3CCN(CCC)CC3)cc21	u	-12%
Cc1ccc(Nc2ccc(N3CCN(C(=O)c4cccc([N+](=O)[O-])c4)CC3)nn2)cc1	u	-29%
CCc1cccc(NC(=O)c2cc3c(=O)n(Cc4ccc(OC)cc4)ccc3nc2C)c1	-30%	-26%
COc1ccc(C(=O)NCCSc2c(C)[nH]c3ccccc23)cc1	-22%	u
COC(=O)c1ccc(NS(=O)(=O)c2ccc3[nH]c4c(c3c2)CCCC4)cc1	u	-15%
COc1ccc(NC(=O)c2ncn(-c3ccccc3)n2)cc1Cl	13%	59%[activator]
COC(=O)c1sccc1S(=O)(=O)N1CCN(c2ccccc2)CC1	0%	-12%
COc1ccc2cc3cc(C(=O)Nc4cc(C)c(Cl)cc4OC)oc3nc2c1	0%	-2%
Cc1ccc(C)c(N2CCN(C(=O)c3cc(S(=O)(=O)N4CCC(C)CC4)cn3C)CC2)c1	-17%	u
Cc1nc(-c2ccc(OCC(C)C)c(C#N)c2)sc1C(=O)O	x	5µM*!

Entries of single compounds, looked up by structure.
Listed for Cc1ccc(C)c(N2CCN(C(=O)c3cc(S(=O)(=O)N4CCC(C)CC4)cn3C)CC2)c1 → PMP22 txn prim: -17%; HTT promoter inh: u
Listed for COc1ccc(NC(=O)c2ncn(-c3ccccc3)n2)cc1Cl → PMP22 txn prim: 13%; HTT promoter inh: 59%[activator]

The listing picks up, repeating the two entries before the break.
SMILES	PMP22 txn prim	HTT promoter inh
Cc1ccc(C)c(N2CCN(C(=O)c3cc(S(=O)(=O)N4CCC(C)CC4)cn3C)CC2)c1	-17%	u
Cc1nc(-c2ccc(OCC(C)C)c(C#N)c2)sc1C(=O)O	x	5µM*!
Clc1ccc2c(c1)CCc1cccnc1C2=C1CCNCC1	x	-42%
CCOc1ccccc1CNC(=O)c1cccn1-c1nnc(N2CCCC2)s1	-25%	-44%
O=C(CSc1nc2c([nH]c3ccccc32)c(=O)n1-c1ccccc1)Nc1ccc2c(c1)OCCO2	-9%	-33%
Cc1cc(S(=O)(=O)NCC(c2ccc(N(C)C)cc2)N2CCOCC2)ccc1F (centres undefined)	-6%	-4%
CCOc1ccc(C2=NC(c3ccc(OC)cc3)=Nc3ccc(Cl)cc3N2)cc1	-95%	57%[activator]
COc1ccccc1C(=O)Nc1ccc(NC(=O)c2cccs2)cc1	u	u
CC(=O)Nc1ccc(NC(=O)CC(C)n2ccc(C)n2)cc1 (centres undefined)	-7%	-3%
C=C1[C@H](n2cnc3c(=O)[nH]c(N)nc32)C[C@H](O)[C@H]1CO	x	-2%
Cc1cccc(N2CCN(S(=O)(=O)c3cn(C)c(C)n3)CC2)c1C	19%	-18%
CCOc1ccc(CCNC(=O)c2ccc3nc(N4CCC(C)CC4)sc3c2)cc1OCC	-22%	u
CCc1ccc(NS(=O)(=O)c2ccc3[nH]cc(C(=O)NCc4ccc(C)cc4)c(=O)c3c2)cc1	-22%	-22%
CCN1CCN(c2ncc3c(n2)CCN(Cc2ccccc2C)C3)CC1	-13%	-11%
O=C(NC1CC1)c1ccc(Cn2c(SCc3cccc(F)c3)nc3cccnc32)cc1	-21%	-17%
Cn1nc(-c2ccccc2F)c2cc(C(=O)NCc3cccc(Cl)c3)sc21	-22%	u
CC(C)N1C(=O)C(O)(c2c[nH]c3ccccc23)c2ccccc21 (centres undefined)	-24%	-28%
CCOC(=O)CNC(=O)c1cc2c(=O)n3cccc(C)c3nc2n1C	1%	-7%
COc1ccc(-c2c(C)nn3c(C(F)(F)F)cc(-c4ccc(Br)cc4)nc23)cc1	-15%	-38%
CCOC(=O)c1c(NC(=O)COc2ccccc2Br)sc2c1CCCCC2	-16%	-9%
NC(=O)C1CCN(S(=O)(=O)c2ccc(N3CCCCS3(=O)=O)cc2)CC1	-10%	-4%
COc1ccc(CNC(=O)CCNS(=O)(=O)c2ccc3c(c2)CCCC(=O)N3)cc1	-9%	-25%
CCOC(=O)C1CCCN(S(=O)(=O)c2ccc3[nH]c(=O)ccc3c2)C1 (centres undefined)	u	-34%
Cc1cccc(NC(=O)c2cc(S(=O)(=O)N3CCc4ccccc43)ccc2F)c1C	-23%	u
Cc1cc(C)cc(NC(=O)c2ncn(-c3ccccc3)n2)c1	-10%	46%[activator]
CCOC(=O)c1ccc(NC(=O)c2c(NCc3cccs3)sc3c2CCCCC3)cc1	u	-28%
CCNc1nc(Oc2ccc(=O)n(-c3ccccc3)n2)nc(N(C)C)n1	-27%	0%
CC1CCc2c(sc(NC(=O)c3ccc(Cl)cc3Cl)c2C#N)C1 (centres undefined)	-6%	-3%
CC(=O)c1cccc(NC(=O)Nc2c(C)n(C)n(-c3ccccc3)c2=O)c1	u	-25%
CN1C(=O)c2ccccc2Sc2ccc(NC(=O)N3CCN(c4cccc(Cl)c4)CC3)cc21	-20%	u
CCC(C)NC(=O)Cn1c(=O)n(-c2cc(OC)cc(OC)c2)c(=O)c2ccccc21 (centres undefined)	-10%	-10%
O=C(Cn1ncc2c3ccccc3n(Cc3ccccc3F)c2c1=O)NCCc1ccc(Cl)cc1	7%	-12%
CCC1CN(C(=O)NCc2ccc(F)cc2)c2cc(C)ccc2O1 (centres undefined)	-1%	-10%
COc1cccc(CNC(=O)C(Cc2ccccc2)NS(=O)(=O)c2ccc3c(c2)CCN3C(C)=O)c1 (centres undefined)	3%	-11%
CCCOc1ccc(C(=O)Nc2cccc(NC(=O)c3cccc(Cl)c3)c2)cc1	u	-2%[11.5 µM]
O=C(COCc1cc(-c2cccs2)on1)NCc1cccc(Cl)c1	7%	-12%
Cc1ccccc1CN1C(=O)c2ccccc2Sc2ccc(C(=O)OCc3ccco3)cc21	3%	u
COC(=O)c1ccc(C2c3c(oc4ccccc4c3=O)C(=O)N2c2nc(C)c(C(=O)OC)s2)cc1 (centres undefined)	-7%	-12%[11.5 µM]
CCN1CCOC(=O)C1CC(=O)Nc1cc(Cl)ccc1OC (centres undefined)	19µM*	-5%
COc1ccc(NC(=O)CN(C)S(=O)(=O)c2ccc(C(=O)N3CCOCC3)s2)cc1	u	u
CCOc1ccc(CNC(=O)c2cc3c(s2)-c2ccccc2OC3)cc1	-41%	-11%
COc1ccc(CNC(=O)CCc2c(C)nn(-c3ccc(N4CCOCC4)nn3)c2C)cc1	-63%	-17%
CCc1ccc(CNc2ncnc3onc(-c4ccc(Cl)cc4)c23)cc1	u	u
Cc1cc(Cl)ccc1NC(=O)CCCn1nc(C)c2c(C)n(-c3ccccc3)nc2c1=O	u	-24%
CC1CCN(S(=O)(=O)c2ccc3c(c2)N(CC(=O)NC(C)c2ccccc2)C(=O)CS3)CC1 (centres undefined)	4%	-26%
CCc1nn(CC(=O)NCCc2ccc(OC)cc2OC)c(=O)c2cc3sccc3n12	-13%	-7%
Cc1ccc(Cl)cc1N1CCN(C(=O)CN2C(=O)CSc3c2c(C)nn3-c2ccccc2)CC1	-58%	-8%
CCc1ccc(NS(=O)(=O)c2cc(Br)cc3c2N(C(C)=O)CC3)cc1	-11%	-3%
O=C(COc1ccccc1)N(Cc1cccnc1)c1nc2c(F)cccc2s1	-8%	-13%
Cc1nn(C(=O)c2ccccc2)c(C)c1Sc1ccc(Cl)cc1	u	u
CC(=O)c1cccc(NC(=O)Cn2c(=O)oc3cc(S(=O)(=O)NCc4ccccc4)ccc32)c1	6%	-24%
CCc1ccc(C(=O)NC(Cc2c[nH]c3ccccc23)C(=O)OCC(=O)c2ccc(Br)cc2)cc1 (centres undefined)	0%	-6%

More records follow.
SMILES	PMP22 txn prim	HTT promoter inh
Cc1ccccc1C(=O)Nc1ccc(C(=O)OCc2cc(=O)n3nc(C4CC4)sc3n2)cc1	u	u
CC1C(=O)Nc2ccc(S(=O)(=O)NCc3ccc(N(C)C)cc3)cc2NC1=O (centres undefined)	-29%	-1%
Cn1ccc2c(OCC(=O)NCc3ccccc3Cl)cccc2c1=O	u	-17%
CCc1ccc(CNC(=O)c2ccc(CS(=O)(=O)Cc3ccccc3C)o2)cc1	-30%	u
Cc1cccc(CSc2ncc(Cl)c(C(=O)Nc3sc4c(c3C#N)CCCC4)n2)c1	u	-4%
CCOC(=O)C1CCCN(C(=O)Cn2nc(C)n3c(cc4c(OC)cccc43)c2=O)C1 (centres undefined)	-10%	-8%
COc1ccc(NC(=O)c2sc3nc(C(F)(F)F)cc(C)c3c2N)cc1OC	u	-14%
COC(=O)c1c(N)n(-c2cc(Cl)cc(Cl)c2)c2nc3ccccc3nc12	u	-9%
COc1ccc(OC)c(Nc2nc(-c3ccc(C)cc3)nc3ccccc23)c1	9%	7%
O=C(CSc1nnc(CNC(=O)c2c(F)cccc2Cl)o1)Nc1cccc(F)c1	0%	-20%

In a second layout: results already given
Below each compound – PMP22 txn prim | HTT promoter inh
CC1C(=O)Nc2ccc(S(=O)(=O)NCc3ccc(N(C)C)cc3)cc2NC1=O (centres undefined)
 : -29% | -1%
Cn1ccc2c(OCC(=O)NCc3ccccc3Cl)cccc2c1=O
 : u | -17%
CCc1ccc(CNC(=O)c2ccc(CS(=O)(=O)Cc3ccccc3C)o2)cc1
 : -30% | u
Cc1cccc(CSc2ncc(Cl)c(C(=O)Nc3sc4c(c3C#N)CCCC4)n2)c1
 : u | -4%
CCOC(=O)C1CCCN(C(=O)Cn2nc(C)n3c(cc4c(OC)cccc43)c2=O)C1 (centres undefined)
 : -10% | -8%

New compounds follow.
SMILES	PMP22 txn prim	HTT promoter inh
O=C(c1ccco1)N(Cc1cccnc1)c1nc2ccc(F)cc2s1	-55%	-13%
COC(=O)c1c(-c2cccs2)csc1NC(=O)c1ccc(Br)cc1	-16%	46%[activator]
C[C@](N)(Cc1ccc(O)c(O)c1)C(=O)O	x	-15%&10%
COc1cc(NC(=O)Cc2noc3ccccc23)cc(OC)c1OC	-14%	-22%
O=C(CSc1nnc2scc(-c3ccccc3)n12)Nc1ccc(Cl)cc1	-14%	-5%
COC(=O)c1c(NC(=O)c2nc(SCc3ccc(C)cc3)ncc2Cl)sc2c1CCCC2	5%	5%
Cc1ccccc1NC(=O)Nc1ccc2nc(N3CCN(C)CC3)cc(C)c2c1	u	9%
COc1ccccc1NC(=O)CSc1nnc(-c2cccc(Cl)c2)o1	-5%	17%
COc1ccccc1C(=O)Nc1ccc2nc(SCCOc3ccccc3C)sc2c1	-27%	-12%
CCOCCn1ccc2c(OCC(=O)Nc3ccc(OC(F)(F)F)cc3)cccc2c1=O	-20%	0%
COc1ccccc1-c1cc2nc(C)c(CCC(=O)NC3CCCCC3)c(C)n2n1	-2%	-32%
Cc1ccc(NC(=O)c2oc3ccccc3c2NC(=O)Cc2cccs2)cc1	-16%	10%
COCCCNC(=O)Cn1c(=O)n(-c2ccc(C)cc2)c(=O)c2c1c1cc(C)ccc1n2C	-10%	-3%
CCCc1cc(=O)oc2c3c(ccc12)OCN(Cc1ccc(OC)cc1)C3	-18%	-9%
COc1ccc(NC(=O)Cn2c(=O)oc3cc(S(=O)(=O)NCc4ccccc4)ccc32)c(OC)c1	-13%	u
CCCC(=O)Nc1ccc(OCC(O)CNC(C)C)c(C(C)=O)c1 (centres undefined)	x	6%
Cc1ccc(-n2ncc(C(=O)NC3CCN(Cc4ccccc4)CC3)c2C2CCN(C(=O)OC(C)(C)C)CC2)cc1C	u	-22%
CCOCCn1ccc2c(OCC(=O)Nc3cccc([N+](=O)[O-])c3)cccc2c1=O	u	u
CN(Cc1ccccc1)C(=O)CSc1nc2ccsc2c(=O)n1-c1ccc(F)cc1	-24%	-9%
CCOC(=O)c1c(C)[nH]c(C)c1S(=O)(=O)N1CCC(C(=O)N2CCN(c3ccccc3)CC2)CC1	3%	-13%
Cc1oc(-c2ccc(Cl)cc2)nc1CSCC(=O)NCc1ccccc1Cl	4%	u
CN1C[C@@H]2C[C@H]1CN2c1cc2c(cc1F)c(=O)c(C(=O)O)cn2C1CC1	x	1%[25.2 µM]
O=C(Cn1c(=O)n(-c2ccc(F)cc2)c(=O)c2sc3ccccc3c21)NC1CCCCC1	u	-11%
CCOc1ccc(CCNC(=O)CS(=O)Cc2nc(-c3ccc(C)cc3)oc2C)cc1OCC (centres undefined)	-14%	-33%
CC(C)CCNC(=O)CSc1c2c(nc3ccc(Cl)cc13)CCCC2	14µM*	-21%
CCOC(=O)c1c(C)oc2nc(C)nc(N3CCN(c4ccc(OC)cc4)CC3)c12	u	u
CCOC(=O)c1c(NC(C)=O)c2c3c(sc2n1Cc1c(C)cc(C)cc1C)CCCC3	u	u
COc1ccc(Nc2c(-c3ccc(C)o3)nc3cc(C)ccn23)cc1	-46%	46%[activator]
COc1ccc(-c2cnc(C)o2)cc1S(=O)(=O)Nc1ccc(OC(F)(F)F)cc1	u	u
COc1ccc(NC(=O)C2CCC(CNS(=O)(=O)c3ccc4c(c3)C(C)(C)C(=O)N4C)CC2)cc1 (centres undefined)	-6%	-7%
COc1ccc(C(CC(=O)Nc2ccc(OC)c(OC)c2)N2Cc3ccccc3C2=O)cc1 (centres undefined)	9%	-19%
Cc1ccc(C)c(CN2CCC(CNC(=O)Cn3ncc4c([nH]c5ccccc54)c3=O)CC2)c1	u	-2%
Cc1ccc(NC(=O)C(=O)NCC(c2cccnc2)N2CCN(Cc3ccccc3)CC2)cc1Cl (centres undefined)	u	-18%

High-throughput results deposited in PubChem by National Center for Advancing Translational Sciences (NCATS).
